Polio RdRp inh: poliovirus RNA polymerase inhibition; P03300; poliovirus polymerase elongation, fluorescence polarization; active compounds read low; hit rate 0.66% among 150,000; AID 588519; % elongation, % (compound at 16.7 µg/mL); in the data active means % elongation below about 90%; further: some results filed as inactive read as strong as hits
Target sequence (P03300 1749-2209 limits assumed): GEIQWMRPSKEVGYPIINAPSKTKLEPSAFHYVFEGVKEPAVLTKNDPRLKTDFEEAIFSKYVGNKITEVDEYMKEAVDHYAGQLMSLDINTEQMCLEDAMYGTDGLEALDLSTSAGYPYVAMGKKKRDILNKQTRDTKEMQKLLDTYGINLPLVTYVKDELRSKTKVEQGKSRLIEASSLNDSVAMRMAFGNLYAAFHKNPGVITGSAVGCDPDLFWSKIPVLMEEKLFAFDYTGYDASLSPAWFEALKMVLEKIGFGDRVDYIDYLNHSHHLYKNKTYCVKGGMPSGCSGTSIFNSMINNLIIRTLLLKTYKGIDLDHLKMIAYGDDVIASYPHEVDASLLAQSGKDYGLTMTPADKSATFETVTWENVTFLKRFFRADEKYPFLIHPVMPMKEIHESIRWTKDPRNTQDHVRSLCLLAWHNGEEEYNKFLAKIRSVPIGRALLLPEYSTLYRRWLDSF
Polio RdRp inh intensity: also measured in Polio RdRp inh; calls as there; % elongation; measured here: total intensity read-out; formula for this scale not given here;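 total fluorescence in place of polarization; lower means less elongation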
An asterisk follows results filed as active.

Values in the order – Polio RdRp inh, Polio RdRp inh intensity
Cc1cc(Cl)ccc1NS(=O)(=O)c1ccc2c(c1)CC(C)N2C(=O)C1CCC1 (stereo unspecified)
  101, 101
Cc1ccc2nc(Nc3cccc(C(F)(F)F)c3)c3nnnn3c2c1
  109, 110
CC(=O)N1c2ccccc2CC1C(=O)N1CCN(c2cccc(Cl)c2)CC1 (stereo unspecified)
  110, 111
COc1ccccc1Nc1nn2c(=O)c3ccc(C(=O)NC(C)c4ccccc4)cc3nc2s1 (stereo unspecified)
  108, 111
CCc1ccccc1NC(=O)c1cc(-c2ccc3c(c2)OCO3)on1
  108, 106
Cc1oc2ncn(CC(C)C)c(=O)c2c1C(=O)NCCCN1CCCCC1
  103, 107
CC(C)c1ccc(NC(=O)CN(C)S(=O)(=O)c2ccc3c(c2)c(=O)n(C)c(=O)n3C)cc1
  102, 103
COc1ccc(OC)c(CNC(=O)CCCn2ccc3cc(S(=O)(=O)N4CCCC4)ccc32)c1
  118, 116
CCOc1ccc(CCNCc2c(C(=O)O)c(C)n(Cc3ccccc3F)c2C)cc1
  108, 111
NC(=O)CSc1nc2c(oc3ccccc32)c(=O)n1-c1ccccc1F
  108, 111
COc1ccc(-c2nc(SCc3cc(=O)c4cc(C)ccc4[nH]3)n[nH]2)cc1
  100, 104
O=C(CCC1N=C2c3ccccc3N=C(SCc3ccc(Cl)cc3)N2C1=O)NCc1cccs1 (stereo unspecified)
  109, 114
COc1ccc(NC(=O)c2cn(CC(C)C)c(=O)c3cc(OC)c(OC)cc23)cc1Cl
  104, 106
Cc1ccc(NC(=O)Cn2c(=O)n(Cc3nc(-c4ccccc4)no3)c(=O)c3ccccc32)cc1C
  104, 98
COc1ccc(CCNC(=O)CCCn2c(=O)c3cccn3c3cccnc32)cc1OC
  109, 108
O=C(Nc1nnc(S(=O)(=O)N2CCOCC2)s1)c1ccc(F)cc1
  105, 104
Cc1ccc(CCNC(=O)c2cc(-c3ccc(Cl)cc3)n[nH]2)cc1
  110, 109
CCCCNC(=O)CCc1c(C)nc2c(c(C)nn2-c2ccccc2)c1C
  103, 103
COc1ccc(OCc2nc(-c3ccc(-n4cccc4)cc3)no2)cc1
  102, 93
Cc1cccc(C(=O)Nc2ccc(OCc3cc(=O)n4c5c(sc4n3)CCCC5)cc2)c1
  102, 103

Retrieved by structure from the list above:
Values in the order – Polio RdRp inh, Polio RdRp inh intensity
CCc1ccccc1NC(=O)c1cc(-c2ccc3c(c2)OCO3)on1
  108, 106
CC(C)c1ccc(NC(=O)CN(C)S(=O)(=O)c2ccc3c(c2)c(=O)n(C)c(=O)n3C)cc1
  102, 103
Cc1cccc(C(=O)Nc2ccc(OCc3cc(=O)n4c5c(sc4n3)CCCC5)cc2)c1
  102, 103
NC(=O)CSc1nc2c(oc3ccccc32)c(=O)n1-c1ccccc1F
  108, 111
CC(=O)N1c2ccccc2CC1C(=O)N1CCN(c2cccc(Cl)c2)CC1 (stereo unspecified)
  110, 111

(listing goes on)
Values in the order – Polio RdRp inh, Polio RdRp inh intensity
CC(C)(C)CC(C)(C)c1ccc(OCC(=O)Nc2ccc(S(=O)(=O)Nc3ncccn3)cc2)cc1
  108, 112
Cc1ccc(-c2cc(C(=O)Nc3ccc(SC(F)F)cc3)no2)cc1F
  105, 107
CCc1ccc(S(=O)(=O)c2nnn3c2nc(N2CCN(CC)CC2)c2sccc23)cc1
  110, 114
COc1ccc(C(=O)Nc2nc3n(n2)C(c2ccc(F)cc2)C=C(c2ccc(Cl)cc2)N3)cc1 (stereo unspecified)
  96, 280
COc1ccc(CCNc2nc3c(c(=O)n(C)c(=O)n3C)n2Cc2ccc(F)cc2)cc1OC
  108, 112
O=c1c2oc3ccccc3c2n(Cc2ccccc2F)c(=O)n1Cc1ccco1
  107, 112
O=C(COc1ccccc1)NCC(c1cccs1)S(=O)(=O)c1ccc(Cl)cc1 (stereo unspecified)
  107, 108
CC1CN(C(=O)N2CCC(C(=O)NCc3ccco3)CC2)c2ccccc2O1 (stereo unspecified)
  108, 113
Cc1ccnc(NS(=O)(=O)c2ccc(NC(=O)c3cc(=O)c4ccc(C)c(C)c4o3)cc2)n1
  107, 112
CCOCCCn1c(SCC(=O)Nc2cc(C)ccc2C)nc2c(oc3ccccc32)c1=O
  102, 109
CC(C)(C)OC(=O)N1CCC(c2c(C(=O)N3CCCCC3)cnn2-c2ccc(Cl)cc2)CC1
  105, 112
CCOC(=O)N1CCc2c(sc3c2c(=O)n(-c2ccc(CC)cc2)c(=O)n3Cc2cccc(Cl)c2)C1
  104, 106
Cn1c(C(=O)Nc2cccc(C(F)(F)F)c2)cc2c(=O)n3ccccc3nc21
  99, 90
Cc1ccc2c(c1)CC(C)N2S(=O)(=O)c1nnc(NC(=O)CC(C)C)s1 (stereo unspecified)
  108, 112
Cc1ccc(NC(=O)Cn2c(=O)n(-c3ccccc3)c(=O)c3ccc(C(=O)NCc4ccc5c(c4)OCO5)cc32)cc1
  99, 100
CC1=C(c2ccc(C(C)C)cc2)S(=O)(=O)N=C1N1CCC(C(=O)NCc2ccccc2)CC1
  34*, 47*
Cc1ccc(CSc2nc(=O)c3c(n2C)NC(=O)CC3c2ccc(OC(C)C)cc2)cc1 (stereo unspecified)
  104, 105
Cc1ccc(C(=O)COC(=O)C(Cc2c[nH]c3ccccc23)NC(=O)c2ccc(C(C)(C)C)cc2)cc1 (stereo unspecified)
  103, 99
COc1cc(OC)c(NC(c2nnc(-c3ccccc3)o2)c2ccc(F)cc2Cl)cc1Cl (stereo unspecified)
  105, 104
O=C(Nc1ccc2oc(-c3cccc(Cl)c3Cl)nc2c1)c1cccc(Br)c1
  99, 101
COc1ccc(OC)c(-c2nc(C(N)=O)c3c(n2)n(-c2ccc4c(c2)OCO4)c(=O)n3C)c1
  111, 113
Cc1ccccc1C(=O)N(Cc1ccc(N(C)C)cc1)CC1CCCO1 (stereo unspecified)
  106, 106
CCOc1ccc(/C=C(\C#N)C(=O)Nc2sc3c(c2C(=O)OC)CCC3)cc1OC
  108, 103
O=S(=O)(c1ccc(Cl)cc1Cl)n1ccnc1
  106, 109
Cc1ccc(NC(=O)Cn2nc(C)c3nn(-c4ccc(Cl)cc4)c(C)c3c2=O)cc1F
  108, 110
COc1ccccc1CNc1ncnc2onc(-c3ccc(F)cc3)c12
  98, 101
CC(C)(C)C1CCc2nc(NC(=O)c3cccc(Cl)c3)sc2C1 (stereo unspecified)
  102, 107
CCOc1ccccc1NC(=O)c1ccc2c(Cl)c3c(nc2c1)CCCC3
  107, 111
CCN(CCCNC(=O)c1cc2c(Cl)nc3ccccc3c2s1)Cc1ccccc1
  99, 104
COc1ccc(OC)c(NC(=O)Cn2c(=O)n(Cc3ccccc3)c(=O)c3ccccc32)c1
  109, 109
Cc1ccc(-n2nc(C)c3c(C(F)(F)F)cc(-c4cccnc4)nc32)cc1C
  109, 111
CCc1ccc(NC(=O)C2CCCN(S(=O)(=O)c3ccc(F)cc3)C2)cc1 (stereo unspecified)
  110, 110
Cc1cccc(-c2nc(CSCC(=O)NCCc3ccc(Cl)cc3)c(C)o2)c1
  107, 108
COc1ccccc1NC(=O)C(C)Sc1nnc2ccc3ccccc3n12 (stereo unspecified)
  109, 109
COc1cc(NC(=O)C(CC(C)C)NS(=O)(=O)c2ccc3c(c2)CCCC(=O)N3)cc(OC)c1 (stereo unspecified)
  106, 110
CCOc1ccc(C(=O)N(Cc2ccc(C(C)C)cc2)Cc2ccco2)cc1
  103, 105
CCc1cccc(NC(=O)Cn2c(=O)n(CCC(=O)NCc3ccccc3Cl)c(=O)c3sccc32)c1
  107, 113
COc1ccc(Nc2ncnc3c2cnn3-c2cc(Cl)ccc2C)cc1OC
  108, 106
CN(C(=O)CSc1nc2ccccc2n1Cc1cccc(C(F)(F)F)c1)c1ccccc1
  101, 105
Cc1cccc(-c2nc3scc(CCNS(=O)(=O)c4ccc(Oc5ccccc5)cc4)n3n2)c1
  110, 115
COc1ccccc1NC(=O)Cn1c(=O)n(Cc2ccccc2)c(=O)c2ccccc21
  108, 111
COc1cc(OC)c(NS(=O)(=O)c2c(C(=O)N3CCCCCC3)c(C)n(C)c2C)cc1Cl
  101, 106
Cc1cccc(-n2ncc3c(Nc4ccc(C)c(Cl)c4)ncnc32)c1
  111, 104
CC(C)c1ccc(NC(=O)c2cc3c(=O)oc4ccccc4c3s2)cc1
  104, 111
COc1ccc(OC)c(CCNC(=O)CCCn2c(=O)c3cccn3c3ccccc32)c1
  108, 106
Cc1ccc(-n2nc3c(=O)n(C(C)C(=O)O)nc(C)c3c2C)cc1 (stereo unspecified)
  105, 105
CC(=O)Nc1nonc1-c1nnc(SCc2ccccc2F)n1C
  108, 96
COCCCNC(=O)CN1C(=O)c2c(c3ccccc3n2C)C1c1ccc(OC)cc1 (stereo unspecified)
  106, 108
COc1nc(-c2ccc(C)cc2)ccc1-c1noc(-c2ccc(C(C)(C)C)cc2)n1
  103, 107
CCn1c2ccccc2c2cc(CN3CCN(Cc4cc(OC)c(O)c(OC)c4)CC3)ccc21
  102, 101
CCOC(=O)c1ccc(CN(Cc2ccc(Cl)cc2Cl)S(=O)(=O)c2cccc(Cl)c2)cc1
  112, 104
Cc1[nH]c2ccc(Br)cc2c1CCNC(=O)c1cc2ccccc2oc1=O
  97, 103
CCOC(=O)c1sc(NC(=O)c2cc(CC)on2)c(C(=O)OCC)c1C
  106, 111
CCOC(=O)c1ccc(NC(=O)CSc2nc3ccccc3c(=O)n2CCC(=O)NC2CCCCC2)cc1
  103, 103
Cc1c(Cl)ccc2sc(N3CCN(C(=O)CS(=O)(=O)c4ccccc4)CC3)nc12
  111, 108
CCOC(=O)c1ccc(NC(=O)c2ccc(=O)n(Cc3cccc(C)c3)c2)cc1
  108, 116
CCOc1ccc(/C=C/C(=O)Nc2sc3c(c2C(=O)OC)CCC3)cc1
  102, 101
CCC1CN(S(=O)(=O)c2cc(-c3cc(C)no3)ccc2OC)c2cc(Cl)ccc2O1 (stereo unspecified)
  106, 112
COc1ccccc1CNC(=O)c1c(O)nc2c(C)cccn2c1=O
  106, 111
Cc1ccc(N2CC(NC(=O)Cc3ccc(F)cc3)CC2=O)cc1C (stereo unspecified)
  107, 110

Rewritten as labelled records: entries from further up.
> Cc1[nH]c2ccc(Br)cc2c1CCNC(=O)c1cc2ccccc2oc1=O
  Polio RdRp inh = 97; Polio RdRp inh intensity = 103

> CCOC(=O)c1sc(NC(=O)c2cc(CC)on2)c(C(=O)OCC)c1C
  Polio RdRp inh = 106; Polio RdRp inh intensity = 111

Continuation:
Values in the order – Polio RdRp inh, Polio RdRp inh intensity
CCOc1ccccc1NC(=O)C1CCCN(S(=O)(=O)c2cccs2)C1 (stereo unspecified)
  108, 112
CCOC(=O)c1cnc2c(ccc3ccccc32)c1Nc1ccc(N(C)C)cc1
  106, 105
CCOc1ccccc1NC(=O)COc1ccc(S(=O)(=O)NC2CCCCC2)cc1
  106, 110
O=C(CCn1cccn1)Nc1ccc(Br)cc1F
  100, 102
COC(=O)c1ccc2c(=O)n(CCCCCC(=O)N3CCN(c4ccc(OC)cc4)CC3)c(=O)[nH]c2c1
  105, 113
O=C(Nc1ccc(Br)cc1F)N1CC=C(c2c[nH]c3ccccc23)CC1
  131, 180
CCCCn1c(SCC(=O)Nc2cccc(OC)c2)nc2ccsc2c1=O
  108, 90
Cc1[nH]c2c(C)cccc2c1CCNC(=O)c1cc2ccccc2oc1=O
  107, 109
COc1ccc(NC(=O)CSC2=Nc3ccccc3C3=NC(CCC(=O)NC4CCCCC4)C(=O)N23)cc1Cl (stereo unspecified)
  114, 115
Brc1cccc(-c2nnn3c2nc(N2CCCCC2)c2ccccc23)c1
  107, 110
CC1=C(c2ccc(C)c(C)c2)S(=O)(=O)N=C1N1CCC(C(=O)N2CCC(C)CC2)CC1
  117, 113
Cc1ccc(CCNC(=O)c2ccc3c(c2)nc2n3CCOC2)cc1
  106, 111
COc1ccc(-c2cc(C(F)(F)F)nc(SCCC(=O)Nc3cccc(OC)c3)n2)cc1
  108, 112
CN1C(=O)Cc2cc(S(=O)(=O)CCC(=O)Nc3ccc(Cl)c(C(F)(F)F)c3)ccc21
  106, 113
Cc1ccc2[nH]c3c(=O)n(CC(=O)N4CCN(c5cccc(C(F)(F)F)c5)CC4)ncc3c2c1
  110, 103
Cc1ccccc1-c1nc(SCC(=O)NCc2ccc(F)cc2)c2c(=O)n(C)c(=O)n(C)c2n1
  102, 106
CCOc1cc(-c2nc(-c3ccc(Br)cc3)no2)cc(OCC)c1OCC
  103, 100
CC(C)CCNC(=O)C1CCN(S(=O)(=O)c2cccc3nsnc23)CC1
  106, 107
Cc1ccc(-n2c(-c3ccco3)nc3c(cnn3-c3ccccc3C)c2=O)cc1
  106, 105
CSc1cccc(NC(=O)Nc2ccccc2OCc2cc(=O)n3cc(C)ccc3n2)c1
  107, 112
COc1cccc(N2CCN(S(=O)(=O)c3cc(Br)cc4c3N(C(=O)C3CC3)CC4)CC2)c1
  109, 112
COC(=O)C1=C(c2ccccc2)c2ccccc2S(=O)(=O)N1CC(=O)Nc1cccc(C(C)=O)c1
  101, 104
CCc1cc(C(=O)Nc2c(C)nn(Cc3ccc(C)cc3)c2C)no1
  106, 113
c1ccc(OCCn2c(COc3ccccc3)nc3ccccc32)cc1
  106, 107
Cc1ccc(CCNC(=O)CCc2cn(Cc3ccccc3C)c3ccccc23)cc1
  108, 110
COc1ccc(S(=O)(=O)NCCc2cc3ccc(C)c(C)c3[nH]c2=O)cc1
  104, 98
COc1ccccc1-c1noc(-c2ccc(NC(C)C)c([N+](=O)[O-])c2)n1
  117, 93
CCc1nonc1NC(=O)c1oc2ccc(Cl)cc2c1C
  101, 104
COc1ccc(OCC(=O)NCCS(=O)(=O)N2CCN(c3cccc(Cl)c3)CC2)cc1
  110, 108
COc1ccc(Nc2cc(C)c3cc(NC(=O)c4cc(OC)cc(OC)c4)ccc3n2)cc1
  109, 112
COc1ccc(C(=O)Nc2nnc(SCc3cc(=O)n4cccc(C)c4n3)s2)cc1
  116, 113

Source: PubChem (ICCB-Longwood Screening Facility, Harvard Medical School)

This is a subset, so the mix of outcomes need not match the whole.
